Epigenetic reg: derepresses silenced GFP reporter in murine cells. murine LDR cells, GFP reporter derepression, 30 h. Potency, µM (doses to about 53.9 µM), inactives show at the highest dose GFP activation, actives largely listed as activators. 0.2% of 280,000 active. AID 1865; also: potency is read from the fitted curve at half-maximal effect; % of control where 0% means no effect; nearly all actives have a fitted effect of over 60% in size
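Reporter derepression read as number of fluorescent GFP-positive objects, 20-120 um in size, counted by laser-scanning cytometer. Mouse LDR line with an epigenetically silenced CMV-GFP locus; compound incubation 30 h, 37 C.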
CBFb-RUNX1 inh: CBF-beta/RUNX1 interaction disruption; Q01196+Q13951; AlphaScreen CBFb-His/RUNX1-biotin binding, biochemical; Potency, µM (doses to about 59.8 µM), for the others: at the top dose activity, negative = inhibition, hits mostly inhibitors; 230,000 tested, under 10 active; also: % of control where 0% means no effect
Target sequence (Q01196 whole entry, looked up): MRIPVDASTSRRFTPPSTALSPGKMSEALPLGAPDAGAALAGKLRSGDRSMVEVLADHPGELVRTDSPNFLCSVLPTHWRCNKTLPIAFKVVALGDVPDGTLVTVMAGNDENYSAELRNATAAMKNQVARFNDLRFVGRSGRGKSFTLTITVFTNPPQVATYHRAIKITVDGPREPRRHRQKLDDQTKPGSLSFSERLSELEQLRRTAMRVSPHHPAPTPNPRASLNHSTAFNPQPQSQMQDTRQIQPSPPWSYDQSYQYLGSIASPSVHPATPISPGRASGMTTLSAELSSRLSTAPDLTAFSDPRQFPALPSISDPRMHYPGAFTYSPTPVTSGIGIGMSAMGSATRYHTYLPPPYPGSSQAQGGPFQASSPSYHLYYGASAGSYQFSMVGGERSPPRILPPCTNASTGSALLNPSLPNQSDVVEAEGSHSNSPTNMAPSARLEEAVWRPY
Target sequence (Q13951 whole entry, looked up): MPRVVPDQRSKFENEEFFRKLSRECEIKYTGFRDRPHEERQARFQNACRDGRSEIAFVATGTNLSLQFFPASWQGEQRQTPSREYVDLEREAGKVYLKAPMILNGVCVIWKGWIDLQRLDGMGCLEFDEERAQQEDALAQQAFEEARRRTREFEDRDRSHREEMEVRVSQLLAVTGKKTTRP
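CBF-beta (His) and RUNX1 (biotin), 30 nM each; 20 min preassociation; + compound, 15 min; + beads 50 ng each (Ni, streptavidin), 90 min; RT; AlphaScreen read.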
IMPase Li cell: IMPase inhibition in cells with lithium potentiation. CHO-M1 cells, IP1 TR-FRET (IP-One), carbachol + lithium. Potency, µM (doses to about 59.4 µM), without a hit: at the highest dose activity, negative = IMPase inhibition, usual class: inhibitors. 0.35% of 210,000 active. AID 1457;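 also: IP1 builds up when IMPase is blocked and the TR-FRET signal falls; potency is read from the fitted curve at half-maximal effect; plate controls were basal vehicle for no effect and high inhibitor control for full effect; nearly all actives have a fitted effect of over 50% in size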
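Concentration–response in CHO-M1 cells, lithium-potentiated; 30 min at 37C. IP1 detected by competitive TR-FRET after 10 min lysis at RT. Hill-fitted AC50.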
KinaseGlo FLuc: Kinase-Glo luciferase inhibition (counter-screen); Q27757; Kinase-Glo luciferase, ATP luminescence, 8 min; Potency, µM (series often up to 38.3 µM), without a hit: top-dose activity change, negative = inhibition, hits mostly inhibitors; 0.28% of 200,000 active; also: potency is read from the fitted curve at half-maximal effect; % is scaled to controls: 0 for no effect and ±100 for the full control effect; nearly all actives have a fitted effect of over 60% in size
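Recombinant Kinase-Glo luciferase, 10 uM ATP (linear range), luciferin; imidazole pH 7.2 / KCl / MgCl2 / Tween / BSA buffer; 8 min RT; luminescence.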
aGal spleen mod: inhibitors or activators of human alpha-galactosidase in spleen homogenate; AID 2107; Potency, µM (titrated, usually from 80 µM), for the others: top-dose activity change, negative = inhibition, most hits filed as inhibitors; 0.008% of 240,000 active; human spleen homogenate, 4MU-alpha-Gal fluorescence, 40 min;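 also: potency is read from the fitted curve at half-maximal effect; 0% = enzyme with vehicle and -100% = no enzyme basal signal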
Target sequence (P06280 32-429 limits assumed): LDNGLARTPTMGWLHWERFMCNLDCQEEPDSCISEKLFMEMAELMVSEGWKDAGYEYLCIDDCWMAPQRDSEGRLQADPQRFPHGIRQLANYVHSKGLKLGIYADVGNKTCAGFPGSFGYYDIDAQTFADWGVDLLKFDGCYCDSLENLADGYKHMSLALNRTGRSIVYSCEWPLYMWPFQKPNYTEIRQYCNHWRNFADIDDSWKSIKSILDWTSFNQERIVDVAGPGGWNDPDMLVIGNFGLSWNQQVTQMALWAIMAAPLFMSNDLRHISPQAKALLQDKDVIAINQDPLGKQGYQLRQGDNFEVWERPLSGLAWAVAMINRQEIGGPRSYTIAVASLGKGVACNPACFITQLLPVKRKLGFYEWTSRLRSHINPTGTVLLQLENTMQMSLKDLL
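Spleen homogenate 1 ug + cpd (titration) + 4-MU-alpha-D-galactopyranoside 1 mM; 37C 40 min; 50 mM citrate/phosphate pH 5.0, 0.01% Tween-20; stop pH 10; fluorescence 365/440; AC50 via Hill.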
Lamin A splicing: modulators of lamin A splicing; AID 1487; Potency, µM (doses to about 46.1 µM), for inactives: at the top dose ratio change, negative = inhibition, most hits filed as inhibitors; 0.01% of 200,000 active; HeLa LMNA splicing GFP/RFP minigene ratio, 48 h; active = well fitted inhibition curve with a large enough effect in the signal ratio, with a control signal flat, not every such curve was filed as active; inconclusive = small, poorly fitted or top-dose-only effect, or effect the other way, or a change in a side signal; the % refers to the signal ratio; also: potency is read from the fitted curve at half-maximal effect; % is scaled to controls: 0 for no effect and ±100 for the full control effect
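S3 HeLa stable clones carrying a lamin A-EGFP splicing minigene plus DsRed2 were seeded at 600 cells/well in Opti-MEM with 2% FBS, pin-dosed and incubated 48 h at 37°C. Acumen cytometry (488 nm) gave the GFP/RFP total-intensity ratio.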
* marks the source's active call; other numbers are inactive results; ? = inconclusive; · = no result given; & = joins results of further samples; [ ] = remark or other dose. Unless noted, calls follow the shape of the dose curve; as a rule, active = well fitted curve in the direction sought with a large enough effect; inconclusive = small, poorly fitted or top-dose-only effect, or another doubt; inactive = no such curve, though single readings can be large; an effect the other way counts as inactive or inconclusive. Some of the compounds tested (hit frequency here may not be typical).

SMILES | Epigenetic reg | CBFb-RUNX1 inh | IMPase Li cell | KinaseGlo FLuc | aGal spleen mod | Lamin A splicing
CCOC(=O)N1CCN(C(=O)CN(C2CCCCC2)S(C)(=O)=O)CC1 | -1.0% | 2.8% | -4.9%[38.3 µM] | 1.0% | 7.1% | 6.8%
CC1CCN(C(=O)CSc2nnc(-c3ccc(S(=O)(=O)N4CCOCC4)cc3)n2C)CC1 | 0.0% | 3.8% | 4.6% | -0.8% | -1.9% | -9.0%
CN(Cc1nc2ccc(F)cc2[nH]1)Cc1c(C(=O)N(C)C)nc2ccc(Cl)cn12 | 0.1% | 4.9% | 11.0% | -3.4% | 2.7% | 3.0%[46 µM]
C=CCn1c(-c2cc(-c3ccc(C)cc3)nc3ccccc23)n[nH]c1=S | -0.4% | -20.4% | 7.8% | -3.2% | -2.4% | 17.1%[46 µM]
COc1cccc(-c2cc(C(=O)Nc3ccc4c(c3)OCCO4)c3ccccc3n2)c1 | 0.9% | 7.5% | -3.0% | 2.3% | 0.3% | -4.4%
O=C(COc1ccccc1)NC(=S)Nc1ccc2c3c(cccc13)CC2 | -2.9% | 2.3% | ? | 15.3% | 0.3% | 0.6%
O=C(CSc1nnc(COc2ccccc2)o1)N1CCN(c2ccccc2)CC1 | -1.0% | 2.4% | 8.7% | 1.0% | 6.9% | 2.0%
Cc1cccc2nc(-c3cccnc3)c(NCCC(C)C)n12 | 5.9% | 0.7% | 18.6% | 2.7% | -4.9% | ?
CCCCNc1nc2c(c(=O)n(C)c(=O)n2C)n1CCC | 0.0% | 8.7% | · | · | -1.8% | ·
Cc1cc(=O)n2[nH]c(-c3ccccc3Cl)cc2n1 | -1.0% | 5.4% | -1.3%[38.3 µM] | -0.1% | -5.5% | 4.6%
COCCCn1c(=O)/c(=C\c2ccc(OC(F)F)c(OC)c2)s/c1=C(/C#N)C(N)=O | ? | 14.7% | · | · | 4.9% | ·
CC(C)(C)c1cc(C(=O)Nc2ccc(F)cc2)n(Cc2ccc(F)cc2)n1 | 5.2% | 27.4% | · | · | 16.8% | ·
CC(C)c1ccc(NC(=O)CN(Cc2ccccc2)S(C)(=O)=O)cc1 | ? | 8.7% | 4.6% | 0.3% | 0.0% | ?
CC(=O)Nc1cccc(-c2nnc(-c3ccccc3)o2)c1 | -0.8% | 19.0% | 14.2%[38.3 µM] | 0.5% | 3.8% | 9.9%
C[C@@H]1CC=C[C@H]2[C@H]1C(=O)N(Cc1ccccc1)[C@H]2c1ccc2ccccc2c1 | -1.9% | 12.0% | · | · | 7.9% | ·
COC(=O)c1sc(-c2ccccc2)cc1NC(=O)c1ccc(F)cc1 | 4.6% | 1.4% | ? | 0.2% | 2.9% | -12.7%
COc1ccc(CCNC(=O)Cn2nnc(-c3ccc(N4CCOCC4)cc3)n2)cc1OC | 1.3% | 2.6% | -1.6%[38.3 µM] | -8.3% | -0.5% | ?
COC(=O)c1cc(C#N)c(NCc2ccc(Cl)cc2Cl)nc1C | 0.9% | -0.4% | 8.91µM* | -0.9% | -6.2% | -1.0%
COc1ccc(/C=C/C(=O)c2ccc(NS(=O)(=O)c3ccc(C)cc3)cc2)cc1O | -0.9% | -12.7% | 2.5% | 6.2% | 1.0% | ?
O=C(c1ccc(F)cc1)N1CCN(c2cc(N3CCCCC3)c(F)cc2[N+](=O)[O-])CC1 | 0.0% | -22.2% | 46.5%[activator][38.3 µM] | 2.4% | 1.1% | -16.6%
Cc1cc(C)c(Cc2c(C)nc3c(C(=O)NCc4ccco4)cnn3c2C)c(C)c1 | 0.7% | -4.0% | 49.6%[activator][38.3 µM] | 3.3% | 5.2% | ?
CC(=O)c1ccc(NC(=O)c2cnsn2)cc1 | 4.9% | 7.3% | -1.8% | -12.1% | -2.2% | ?
CS(=O)(=O)N1CC(C(=O)NC2CC2)Oc2ccc(Cl)cc21 (centres undefined) | -1.2% | 3.3% | -3.7%[38.3 µM] | 1.0% | -2.8% | 6.9%
CCN(CC)S(=O)(=O)c1ccc2c(c1)C(=NO)c1cc(S(=O)(=O)N(CC)CC)ccc1-2 | 2.0% | -4.9% | 11.5% | 0.3% | -6.1% | ?
CCCN(CC1CC1)C(=O)CSc1ncnc2sc(C)c(C)c12 | -4.1% | 0.7% | 41.2%[activator][38.3 µM] | -3.3% | 0.3% | ?

Complete entries from above. Order of values: Epigenetic reg, CBFb-RUNX1 inh, IMPase Li cell, KinaseGlo FLuc, aGal spleen mod, Lamin A splicing
Record of O=C(CSc1nnc(COc2ccccc2)o1)N1CCN(c2ccccc2)CC1 → -1.0%, 2.4%, 8.7%, 1.0%, 6.9%, 2.0%
Record of CCCCNc1nc2c(c(=O)n(C)c(=O)n2C)n1CCC → 0.0%, 8.7%, ·, ·, -1.8%, ·

Next section.
SMILES | Epigenetic reg | CBFb-RUNX1 inh | IMPase Li cell | KinaseGlo FLuc | aGal spleen mod | Lamin A splicing
Cc1ccccc1OCCCN1C(=O)C(=O)c2cccc(C)c21 | 0.8% | -5.1% | 26.0%[38.3 µM] | 0.0% | -1.3% | -9.7%
Cc1ccccc1NC(=S)N(Cc1ccccn1)Cc1ccccc1Cl | -3.5% | -1.2% | 14.8% | -2.1% | -0.1% | -14.2%[46 µM]
COCCCn1c(=N)c(C(=O)NCC2CCCO2)cc2c(=O)n3ccccc3nc21 (centres undefined) | -1.0% | 10.1% | ? | -4.8% | 19.8% | 1.1%
CC(=O)Nc1ccc(S(=O)(=O)N2CCN(CC(=O)NC3CCCC3)CC2)cc1 | -8.6% | 6.5% | · | · | 4.9% | 2.2%
O=S(=O)(NC1CCN(Cc2ccccc2)CC1)c1cccc2cccnc12 | -0.8% | 1.7% | 11.4%[38.3 µM] | -1.0% | -10.2% | -4.9%
CCC(=O)N1CCN(c2ccccc2NC(=O)COc2ccccc2Cl)CC1 | 0.0% | -6.7% | 40.4%[activator][38.3 µM] | 1.4% | -11.7% | 3.6%
CCCC(C(=O)n1nc(C)cc1C)C(NS(=O)(=O)c1ccc(C)cc1)c1ccccc1 (centres undefined) | -1.7% | -2.2% | 35.8%[activator][38.3 µM] | -1.6% | -6.7% | ?
CCOc1ccc(N(C(=O)c2ccccc2Cl)C2=NC(C)(C)CS2)cc1 | 1.3% | 12.3% | 33.9%[activator] | 4.1% | -14.0% | -13.6%[46 µM]
CC(C)CNC(=O)CCCc1ccccc1 | -3.5% | 4.9% | 22.3%[38.3 µM] | 4.2% | 3.0% | 1.8%
CCOC(=O)Cn1c2ccccc2c2nc(C)sc21 | 1.3% | -1.6% | -7.7% | · | -3.5% | ·
O=C(c1cnn2c(C(F)(F)F)cc(-c3ccccc3)nc12)N1CCCCC1c1cccnc1 (centres undefined) | -1.9%[10.1 µM] | -5.8% | 22.2% | 0.2% | -3.3% | ?
Cc1cccc(C)c1OCc1nc2ccccc2c(=O)n1/N=C/c1c[nH]c2ccccc12 | -0.9% | -1.7% | · | · | 1.7% | ?
CCCc1nc(NCc2ccccn2)c2nnn(Cc3ccccc3F)c2n1 | 4.5% | 1.2% | 2.5%[38.3 µM] | -2.7% | 4.4% | 20.1%
CN(Cc1ccccc1)c1nc2c(c(=O)n(C)c(=O)n2C)n1CCCc1ccccc1 | 0.0% | -0.1% | 19.6% | 4.9% | -1.7% | -6.2%
CCOC(=O)c1cnc(SCC)[nH]c1=O | 0.8%&0.0% | 3.3%&9.2% | 19.0%[38.3 µM] | 3.1% | -1.9%&-6.4% | -0.5%
S=C(Nc1ccc(Cl)cc1Cl)NC1CCCCC1 | 0.7% | -1.9% | -6.0%[38.3 µM] | -2.9% | -3.5% | 2.7%[0.0737 µM]
CCOC(=O)N1CCN(C(=O)Nc2ccc3nc(C)sc3c2)CC1 | 0.0% | 0.5% | 15.0%[38.3 µM] | -2.7% | -6.0% | -3.4%
CCOC(=O)CSc1c(-c2ccccc2)c2cc(Cl)ccc2[nH]c1=O | 0.0% | -5.0% | 4.1% | 0.3% | 11.3% | 9.4%
O=C(CNC(=S)N(Cc1ccccc1)Cc1ccccc1F)NCc1ccc(Cl)cc1 | 0.0% | -17.5% | ? | 1.4% | -1.2% | ·
O=C(NC1(C(F)(F)F)C(=O)Nc2c1c(=O)[nH]c(=O)n2-c1ccccc1)c1cccnc1 (centres undefined) | 0.0% | 1.0% | -21.9%[38.3 µM] | -6.5% | 6.0% | 6.3%
CC1=C(C(N)=O)C(c2cccc(OCc3ccccc3)c2)n2nnnc2N1 (centres undefined) | -1.1% | -2.3% | 3.1%[38.3 µM] | -0.4% | -3.8% | -22.3%
CCOc1ccc2[nH]c(=O)c(C(c3nnnn3Cc3ccco3)N3CCC(C)CC3)cc2c1 (centres undefined) | -3.5% | -1.4% | 9.2% | -0.4% | -6.6% | -4.9%
CN(c1ccccc1)S(=O)(=O)c1cc(C(=O)Nc2nc3ccccc3[nH]2)ccc1Cl | 0.0% | -15.4% | 16.8% | 4.4% | -26.7% | -19.0%
Cn1c(-c2ccc3c(c2)OCO3)cnc1NC(=O)CCC(=O)NCCc1ccccc1 | -0.1% | -16.6% | -9.3%[38.3 µM] | 0.1% | 2.6% | -4.0%
Cc1cccc(Cc2c(C)nc3c(C(=O)NCc4ccco4)cnn3c2C)c1 | 1.1% | -16.5% | 0.1%[38.3 µM] | -7.0% | -1.6% | ?
Cc1nc2ccc(NC(=O)NCc3ccco3)cc2s1 | -0.8% | -2.1% | 6.3%[38.3 µM] | -0.7% | 3.4% | 5.8%
c1ccc(-c2nc(NCC3CCCO3)c3ccccc3n2)nc1 (centres undefined) | 1.1% | ? | 3.0%[38.3 µM] | -2.2% | 2.3% | -4.2%
CNC(=O)c1c(NC(=O)c2cccc(N3C(=O)CCC3=O)c2)sc2c1CCC2 | 17.3% | 7.8% | · | · | 9.2% | ·
CCOC(=O)c1cc(-c2ccccc2)sc1NC(=S)Nc1cccc(C)n1 | ? | 3.3% | -14.9%[38.3 µM] | -2.2% | 5.4% | -25.1%

Six compounds drawn at random from the list so far:
SMILES | Epigenetic reg | CBFb-RUNX1 inh | IMPase Li cell | KinaseGlo FLuc | aGal spleen mod | Lamin A splicing
c1ccc(-c2nc(NCC3CCCO3)c3ccccc3n2)nc1 (centres undefined) | 1.1% | ? | 3.0%[38.3 µM] | -2.2% | 2.3% | -4.2%
Cn1c(-c2ccc3c(c2)OCO3)cnc1NC(=O)CCC(=O)NCCc1ccccc1 | -0.1% | -16.6% | -9.3%[38.3 µM] | 0.1% | 2.6% | -4.0%
CCOc1ccc2[nH]c(=O)c(C(c3nnnn3Cc3ccco3)N3CCC(C)CC3)cc2c1 (centres undefined) | -3.5% | -1.4% | 9.2% | -0.4% | -6.6% | -4.9%
Cc1cccc(Cc2c(C)nc3c(C(=O)NCc4ccco4)cnn3c2C)c1 | 1.1% | -16.5% | 0.1%[38.3 µM] | -7.0% | -1.6% | ?
CCCC(C(=O)n1nc(C)cc1C)C(NS(=O)(=O)c1ccc(C)cc1)c1ccccc1 (centres undefined) | -1.7% | -2.2% | 35.8%[activator][38.3 µM] | -1.6% | -6.7% | ?
CC(C)CNC(=O)CCCc1ccccc1 | -3.5% | 4.9% | 22.3%[38.3 µM] | 4.2% | 3.0% | 1.8%
